Assay outcomes deposited in PubChem by several laboratories.
VCAM-1 inhibition – inhibitors of TNFa-induced VCAM-1 surface display, cell-based, plate reader, pooled HUVEC, TNFa stimulus (AID 454). HUVEC TNFa-induced VCAM-1 surface immunofluorescence, plate reader; numbers were filed only for top-ranked candidate wells. inhibition, % at 5 µM. 10,000 compounds, 0.2% hits;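 active means compound among top-ranked inhibitors of TNF-induced VCAM-1 adhesion protein staining, with the hit upheld by image or statistical review; inactive means the rest, including hits rejected on review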;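 further: 0% = TNFa with vehicle and 100% = cells without TNFa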
FPRL1 ligand – human FPRL1 ligands by binding competition, primary screen, cell-based, FPR counter-screen, flow cytometry | N-formyl peptide receptor 2 (Homo sapiens), P25090 | 24,000 compounds, 0.3% hits | inhibition, %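 (tested at 6.7 µM)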 | FPRL1-expressing cells, fluorescent ligand binding inhibition;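 further: 0% = buffer alone and 100% = receptor blocker peptide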
Target sequence (P25090 whole entry, looked up): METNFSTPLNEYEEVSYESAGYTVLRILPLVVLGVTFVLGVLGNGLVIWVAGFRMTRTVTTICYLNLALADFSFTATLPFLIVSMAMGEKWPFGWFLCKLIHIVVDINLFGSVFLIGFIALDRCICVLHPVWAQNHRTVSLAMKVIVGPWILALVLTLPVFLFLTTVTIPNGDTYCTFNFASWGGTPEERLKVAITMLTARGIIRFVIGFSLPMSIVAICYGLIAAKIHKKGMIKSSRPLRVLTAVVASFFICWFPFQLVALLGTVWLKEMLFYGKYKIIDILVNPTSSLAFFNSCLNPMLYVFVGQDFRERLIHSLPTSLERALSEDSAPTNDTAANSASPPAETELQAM
VCAM-1 up imaging – enhancers of VCAM-1 display on endothelial cells, imaging, high-content imaging, pooled HUVEC, TNFa stimulus (AID 457) | Pooled HUVEC, TNFa-induced VCAM-1 immunofluorescence imaging; hits of this screen are not shown here | calls only | 10,000 compounds, 0.2% hits;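 active means a top-ranked rise in VCAM-1 staining upheld on image or statistical review; inactive means the rest, including candidates rejected on review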;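 further: compounds tested at 5 µM in the well; cells exposed to compound for 24 hours before fixing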
FPR binder – human FPR ligands by binding competition, primary screen, cell-based, FPRL1 counter-screen, flow cytometry. fMet-Leu-Phe receptor (Homo sapiens), P21462. FPR-expressing cells, fluorescent ligand binding. inhibition, %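 (tested at 6.7 µM)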. 24,000 compounds, 0.74% hits. AID 440, 2006;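 further: 0% = buffer wells and 100% = receptor blocker peptide wells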
Target sequence (P21462 whole entry, looked up): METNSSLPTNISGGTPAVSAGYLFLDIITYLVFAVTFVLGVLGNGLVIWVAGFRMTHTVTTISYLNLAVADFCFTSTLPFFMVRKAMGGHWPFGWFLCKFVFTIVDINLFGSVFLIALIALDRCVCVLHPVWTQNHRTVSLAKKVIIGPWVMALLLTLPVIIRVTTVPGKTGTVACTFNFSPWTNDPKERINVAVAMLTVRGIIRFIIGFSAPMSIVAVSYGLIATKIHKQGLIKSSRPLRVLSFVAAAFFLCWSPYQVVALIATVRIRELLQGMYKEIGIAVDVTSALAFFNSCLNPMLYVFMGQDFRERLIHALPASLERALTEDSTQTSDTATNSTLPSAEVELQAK
VCAM-1 imaging – inhibitors of TNFa-induced VCAM-1 surface display, imaging, high-content imaging, pooled HUVEC, TNFa stimulus (AID 456) | HUVEC TNFa-induced VCAM-1 surface expression, immunofluorescence imaging; numbers were filed only for top-ranked candidate wells | 10,000 compounds, 0.2% hits | one-dose inhibition, % at 5 µM; IC50 in µM for titrated hits;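 active means top tenth filtered wells with inhibition above zero that passed visual or statistical confirmation; inactive means the rest, including hits rejected on review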;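 further: 0% = stimulated vehicle wells and 100% = unstimulated cells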
An asterisk follows results filed as active.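 How the source made its calls, unless noted: active means mean above 30%; inconclusive means self-fluorescent; inactive means the rest.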

COc1ccc2c(c1OC)C(=O)O[C@@H]2[C@H]1c2c(cc3c(c2OC)OCO3)CCN1C was read as VCAM-1 inhibition inactive, FPRL1 ligand -0.9, VCAM-1 up imaging inactive, FPR binder -0.5 and VCAM-1 imaging inactive.
Cc1nc2ccc3nc(NC(=O)c4ccc5c(c4)OCCO5)sc3c2s1 was read as FPRL1 ligand 2.0 and FPR binder 3.3.
`Cc1oc(-c2ccccc2F)nc1CS(=O)CC(=O)NCc1cccs1` (centres undefined) gave FPRL1 ligand 0.9 and FPR binder 11.8.
`CC(=O)c1cccc(NC(=O)Nc2cccs2)c1` gave FPRL1 ligand 11.3 and FPR binder 5.9.
For Cc1oc(-c2ccccc2F)nc1CS(=O)(=O)CC(=O)NCCCc1ccccc1 the results were FPRL1 ligand 0.5 and FPR binder 8.2.
Screening Cc1cc(S(=O)(=O)Nc2cccnc2)c(C)s1 returned FPRL1 ligand 1.8 and FPR binder -1.1.
`Cc1nn(C)c(C)c1S(=O)(=O)N1CCCC(C(=O)NC2CCCCCC2)C1` (centres undefined) gave FPRL1 ligand 7.0 and FPR binder 3.1.
`CC(C)(C)c1[nH]nc2c1C(c1ccccc1OC(=O)N1CCOCC1)C(C#N)=C(N)O2` (centres undefined) gave FPRL1 ligand 2.8 and FPR binder -6.2.
`CCOC(=O)N1CCN(C(=O)c2cc(C)no2)CC1` gave FPRL1 ligand 1.0 and FPR binder 0.3.
CCOC(=O)c1nnn(CC(=O)Nc2ccccc2OC)c1C(=O)OCC was read as FPRL1 ligand -7.4 and FPR binder -4.7.
For Cc1ccc(C)n1CCN1CCN(C(=O)c2ccco2)CC1 the results were FPRL1 ligand 6.1 and FPR binder 8.3.
Screening CCc1ccc(C=NC23CN4CN(CN(C4)C2)C3)s1 returned VCAM-1 inhibition inactive, FPRL1 ligand 6.8, VCAM-1 up imaging inactive, FPR binder -2.4 and VCAM-1 imaging inactive.
For Cc1cc(C)cc(NC(=O)CSc2nnc(Cn3c(=O)sc4ccccc43)n2C)c1 the results were FPRL1 ligand 6.1 and FPR binder 6.4.
Screening COC(=O)c1cc(=O)nc2sc(-c3cccs3)nn12 returned VCAM-1 inhibition inactive, FPRL1 ligand 0.1, VCAM-1 up imaging inactive, FPR binder -0.2 and VCAM-1 imaging inactive.
`CC(C)C(NS(=O)(=O)c1cccs1)C(=O)NCCN1CCN(c2ccccc2)CC1` (centres undefined) gave FPRL1 ligand 1.7 and FPR binder -1.4.
COc1ccc(C2C(C(=O)N3CCOCC3)CCC(=O)N2c2cc(OC)c(OC)c(OC)c2)cc1 (centres undefined) was read as FPRL1 ligand 4.8 and FPR binder -0.7.
For CC1Cc2ccccc2N1C(=O)CSc1nc2ccccc2n1CC(=O)N1CCOCC1 (centres undefined) the results were VCAM-1 inhibition inactive, FPRL1 ligand -2.8, VCAM-1 up imaging inactive, FPR binder -0.7 and VCAM-1 imaging inactive.
Screening COc1cccc(-c2nn(C)c3sc(C(=O)NCc4ccccn4)cc23)c1 returned FPRL1 ligand 0.8 and FPR binder 7.2.
CCOC(=O)N1CCC2(CC1)CC(=O)c1cc(O)ccc1O2 was read as FPRL1 ligand -15.5 and FPR binder -8.4.
`Cn1nnnc1SCC(=O)NC1CCCCC1` gave VCAM-1 inhibition inactive, FPRL1 ligand 0.0, VCAM-1 up imaging inactive, FPR binder 4.4 and VCAM-1 imaging inactive.

Some of these compounds in order of number of heavy atoms, lowest first.
`Cn1nnnc1SCC(=O)NC1CCCCC1` gave VCAM-1 inhibition inactive, FPRL1 ligand 0.0, VCAM-1 up imaging inactive, FPR binder 4.4 and VCAM-1 imaging inactive.
`CC(=O)c1cccc(NC(=O)Nc2cccs2)c1` gave FPRL1 ligand 11.3 and FPR binder 5.9.
Screening COC(=O)c1cc(=O)nc2sc(-c3cccs3)nn12 returned VCAM-1 inhibition inactive, FPRL1 ligand 0.1, VCAM-1 up imaging inactive, FPR binder -0.2 and VCAM-1 imaging inactive.
Screening COc1cccc(-c2nn(C)c3sc(C(=O)NCc4ccccn4)cc23)c1 returned FPRL1 ligand 0.8 and FPR binder 7.2.
For Cc1cc(C)cc(NC(=O)CSc2nnc(Cn3c(=O)sc4ccccc43)n2C)c1 the results were FPRL1 ligand 6.1 and FPR binder 6.4.

Further records:
`O=C(Cn1c(NCCO)nc2ccccc21)c1ccccc1` gave VCAM-1 inhibition inactive, FPRL1 ligand -3.2, VCAM-1 up imaging inactive, FPR binder 3.7 and VCAM-1 imaging inactive.
For O=C(c1scc2c1CCCC2)N1CCCCC1 the results were FPRL1 ligand 9.4 and FPR binder -0.3.
For COc1ccc(NC(=O)c2cc(-c3ccccc3OC)on2)cc1 the results were FPRL1 ligand -1.8 and FPR binder 4.4.
Screening O=C(CN1CCN(Cc2ccc3c(c2)OCO3)CC1)N1CCc2[nH]c3ccc(F)cc3c2C1 returned VCAM-1 inhibition inactive, FPRL1 ligand -2.6, VCAM-1 up imaging inactive, FPR binder -11.9 and VCAM-1 imaging inactive.
Screening Cc1ccc(C2N(c3cccc(Cl)c3)C(=O)C3CCCN32)o1 (centres undefined) returned FPRL1 ligand 9.1 and FPR binder 9.3.
CC(C)(C)OC(=O)N1CCCC1C(=O)N1CCc2ccccc21 (centres undefined) was read as VCAM-1 inhibition inactive, FPRL1 ligand -6.2, VCAM-1 up imaging inactive, FPR binder -3.3 and VCAM-1 imaging inactive.
For CC(C)Cc1cc(C(=O)N2CCN(c3ccc(F)cc3)CC2)no1 the results were FPRL1 ligand -4.1 and FPR binder 3.8.
CCOC(=O)Cn1cnc2c(nnn2-c2ccc(OC)cc2)c1=O was read as FPRL1 ligand -3.6 and FPR binder -4.2.
For CCOC(=O)CN1C(=O)C(=O)c2cccc(C)c21 the results were VCAM-1 inhibition inactive, FPRL1 ligand 2.8, VCAM-1 up imaging inactive, FPR binder -6.0 and VCAM-1 imaging inactive.
Screening COc1ccc(CNC(=O)C2C3C=CC4(CN(Cc5cccnc5)C(=O)C24)O3)cc1 (centres undefined) returned FPRL1 ligand 10.6 and FPR binder 5.7.
For Cc1ccc(NC(=O)CCc2c(C)nc3ncnn3c2C)cc1 the results were FPRL1 ligand -0.2 and FPR binder -0.8.
O=c1cc(-c2ccccc2Cl)c2c([nH]1)CCC2 was read as FPRL1 ligand -3.2 and FPR binder 0.0.
Screening CC1(C)S[C@@H]2[C@H](NC(=O)Cc3ccccc3)C(=O)N2[C@H]1C(=O)O returned VCAM-1 inhibition inactive, FPRL1 ligand 7.8, VCAM-1 up imaging inactive, FPR binder 48.4* and VCAM-1 imaging inactive.
CCCCNC(=O)C1C2C=CC3(CN(Cc4ccccc4Cl)C(=O)C13)O2 (centres undefined) was read as FPRL1 ligand 4.3 and FPR binder 3.3.
Screening CN(Cc1ccco1)C(=O)C1CCC(=O)N1Cc1ccc(F)cc1 (centres undefined) returned FPRL1 ligand 3.9 and FPR binder -4.9.
Screening COc1cccc(-c2nnc(NC(=O)c3ccc(S(=O)(=O)N4CC(C)OC(C)C4)cc3)o2)c1 (centres undefined) returned FPRL1 ligand 1.6 and FPR binder -5.3.
CCOC(=O)N1CCN(C(=O)C2c3cc(OC)c(OC)cc3C(=O)N3CCc4ccccc4C23)CC1 (centres undefined) was read as VCAM-1 inhibition inactive, FPRL1 ligand 4.4, VCAM-1 up imaging inactive, FPR binder -2.0 and VCAM-1 imaging inactive.
For CCc1cccc(NC(=O)CCc2nc(-c3cccs3)no2)c1 the results were VCAM-1 inhibition inactive, FPRL1 ligand -5.2, VCAM-1 up imaging inactive, FPR binder -0.2 and VCAM-1 imaging inactive.
`COc1cccc(C2CC(c3ccccc3Cl)n3ncnc3N2)c1` (centres undefined) gave FPRL1 ligand 11.5 and FPR binder 13.1.
For COc1cc(C2=NOC(C(=O)N3CCN(c4ccc(F)cc4)CC3)C2)cc(OC)c1OC (centres undefined) the results were FPRL1 ligand -3.0 and FPR binder -7.7.
`c1ccc(-c2noc(C3CCCCC3)n2)nc1` gave VCAM-1 inhibition inactive, FPRL1 ligand -3.2, VCAM-1 up imaging inactive, FPR binder -4.6 and VCAM-1 imaging inactive.
`CCCNC(=O)Cn1cccc1C(=O)c1ccccc1` gave FPRL1 ligand 8.2 and FPR binder -1.6.
`COc1cc(OC)c(C2N(C)c3ccccc3N2C)cc1OC` gave VCAM-1 inhibition inactive, FPRL1 ligand 1.0, VCAM-1 up imaging inactive, FPR binder -0.7 and VCAM-1 imaging inactive.
Screening CN1CCN(CCCNC(=O)c2cc3c(=O)n(C)c4ccccc4c3s2)CC1 returned FPRL1 ligand -0.4 and FPR binder 5.0.
Screening COc1cccc(NC(=O)Cn2cnc3sc(C)c(S(=O)(=O)N4CCN(C)CC4)c3c2=O)c1 returned FPRL1 ligand 3.3 and FPR binder 2.0.
CC1CSc2nnc(CCc3ccccc3)n21 (centres undefined) was read as FPRL1 ligand 9.4 and FPR binder 3.3.
Screening Cc1ccc(Cl)cc1N1CCN(C(=O)C2CCC(=O)N2C(C)C)CC1 (centres undefined) returned FPRL1 ligand 1.3 and FPR binder -4.6.
Screening COc1ccccc1N1CCN(C(=O)CSc2nc3ccccc3c(=O)n2CC2CCCO2)CC1 (centres undefined) returned FPRL1 ligand -1.8 and FPR binder 5.6.
Cn1c(C(=O)NCC2CCCO2)cc2c(=O)[nH]c3ccccc3c21 (centres undefined) was read as VCAM-1 inhibition inactive, FPRL1 ligand -2.9, VCAM-1 up imaging inactive, FPR binder -1.2 and VCAM-1 imaging inactive.
Screening CCOc1ccc2nc(NC(=O)C3CCCN(S(=O)(=O)c4cccs4)C3)sc2c1 (centres undefined) returned FPRL1 ligand -0.5 and FPR binder -5.6.
Screening Cn1c(=O)c2c(nc(NCCCO)n2C/C=C/c2ccccc2)n(C)c1=O returned VCAM-1 inhibition inactive, FPRL1 ligand 6.5, VCAM-1 up imaging inactive, FPR binder 3.8 and VCAM-1 imaging inactive.
`Cc1cccc(NC(=O)c2cnc3n(c2=O)CCS3)c1` gave FPRL1 ligand -4.0 and FPR binder 3.6.
Screening COc1ccc(C(=O)C(CO)Oc2ccccc2OC)cc1OC (centres undefined) returned FPRL1 ligand 9.5 and FPR binder -0.9.
`CCSc1nnc(NC(=O)c2csc(C)c2)s1` gave VCAM-1 inhibition inactive, FPRL1 ligand -6.6, VCAM-1 up imaging inactive, FPR binder -0.5 and VCAM-1 imaging inactive.
For NC(=O)c1ccc(C2SCC(=O)N2Cc2ccccc2)cc1 (centres undefined) the results were FPRL1 ligand -5.7 and FPR binder 1.9.
Screening O=C(c1ccccc1)c1coc2ccc(O)c(CN3CCOCC3)c12 returned VCAM-1 inhibition inactive, FPRL1 ligand 5.1, VCAM-1 up imaging inactive, FPR binder 1.9 and VCAM-1 imaging inactive.
COc1ccc(CNC(=O)C2CCN(S(=O)(=O)c3c(C)n[nH]c3C)CC2)cc1 was read as FPRL1 ligand 1.6 and FPR binder 1.2.
For COc1cccc2cc(C(=O)N3CCC(C)CC3)c(=O)oc12 the results were FPRL1 ligand 0.1 and FPR binder -3.0.
Screening CC1(C)CC(=O)C=C(NC2CCS(=O)(=O)C2)C1 (centres undefined) returned VCAM-1 inhibition inactive, FPRL1 ligand 0.4, VCAM-1 up imaging inactive, FPR binder 5.5 and VCAM-1 imaging inactive.
CCN(CC)S(=O)(=O)c1ccc(C(=O)Nc2c3c(nn2C(C)(C)C)CS(=O)(=O)C3)cc1 was read as FPRL1 ligand 7.9 and FPR binder -4.8.
Screening CC(=O)N1C(=O)C2(C(C#N)=C(N)Oc3cc(C)oc(=O)c32)c2ccccc21 (centres undefined) returned VCAM-1 inhibition inactive, FPRL1 ligand 14.0, VCAM-1 up imaging inactive, FPR binder 11.2 and VCAM-1 imaging inactive.
Screening Cc1ccc(Cn2nnc(C(=O)Nc3cc(C)ccc3C)c2N)cc1 returned FPRL1 ligand 2.8 and FPR binder 1.9.
Screening CC(=O)N1CCN(S(=O)(=O)c2ccc(S(=O)(=O)NCC(C)C)cc2)CC1 returned VCAM-1 inhibition inactive, FPRL1 ligand -2.9, VCAM-1 up imaging inactive, FPR binder -7.6 and VCAM-1 imaging inactive.
Screening COc1ccc(-n2c(=O)cc(N3CCOCC3)[nH]c2=O)cc1 returned FPRL1 ligand -8.6 and FPR binder 4.7.
For COc1ccc(NC(=O)CSc2nnc(Cc3cccn3C)n2-c2ccc(F)cc2)cc1OC the results were VCAM-1 inhibition inactive, FPRL1 ligand -7.0, VCAM-1 up imaging inactive, FPR binder -0.2 and VCAM-1 imaging inactive.
For O=C(O)C1C2CCC(C2)C1C(=O)Nc1cc(F)ccc1F (centres undefined) the results were FPRL1 ligand -11.6 and FPR binder -7.3.

This is a subset (hit frequency here may not be typical).
